Source: PubChem BioAssay
G9a inh = G9a (human) methyltransferase inhibition | Potency, µM (series often up to 102 µM), inactives show top-dose activity, negative = inhibition, hits mostly inhibitors | 350,000 compounds, 8.8% hits | G9a H3K9 monomethylation, AlphaScreen, 2 h; further: on the % scale 0 is the no-effect control and ±100 the full control effect; nearly all actives have a fitted effect of over 75% in size
Target sequence (Q96KQ7 913-1193 limits assumed): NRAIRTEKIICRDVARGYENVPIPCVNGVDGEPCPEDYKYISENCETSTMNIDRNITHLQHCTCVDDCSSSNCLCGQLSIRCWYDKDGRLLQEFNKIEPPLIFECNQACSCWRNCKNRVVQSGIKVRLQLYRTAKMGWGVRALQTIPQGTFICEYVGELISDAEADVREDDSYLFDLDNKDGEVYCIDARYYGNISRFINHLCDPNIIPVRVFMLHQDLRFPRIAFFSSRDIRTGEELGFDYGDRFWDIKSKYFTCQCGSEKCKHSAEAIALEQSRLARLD
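Using a bead-based AlphaScreen, monomethylated H3K9 product from 2 h room-temperature reactions (G9a 20 nM, peptide 500 nM, SAM 20 uM) was detected with 0.5 ug/mL rabbit anti-H3K9me1 antibody.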
Pol kappa inh = inhibitors of human DNA polymerase kappa | Potency, µM (titrated, usually from 107 µM), without a hit: top-dose activity, negative = inhibition, actives largely listed as inhibitors | 400,000 compounds, 0.53% hits | purified Pol kappa, fluorescent DNA synthesis assay, 10 min | Q9UBT6; further: on the % scale 0 is the no-effect control and ±100 the full control effect
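10 nM Pol kappa was preincubated with compounds for 15 min at room temperature. Reaction started with 50 nM (final) substrate. Fluorescence read kinetically at 0 and 10 min.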
Pol eta inh = blocks human DNA polymerase eta activity; Q9Y253; recombinant Pol eta, fluorescent DNA replication assay; Potency, µM (series often up to 114 µM), for the others: top-dose activity change, negative = inhibition, actives largely listed as inhibitors; 390,000 compounds, 1.2% hits; further: on the % scale 0 is the no-effect control and ±100 the full control effect
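Pol eta (10 nM) was preincubated with compounds for 15 min at room temperature, after which fluorescent replication substrate (50 nM final) was added to start the reaction. Fluorescence was read kinetically at 0 and 10 min.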
Anesthetic bind = binds horse apoferritin like a general anesthetic. Potency, µM (highest dose often 77.5 µM), inactives show at the highest dose activity change, negative = displacement, hits mostly inhibitors. apoferritin/1-aminoanthracene competitive binding, fluorescence. AID 485281. P02791. 350,000 compounds, 0.074% hits; further: on the % scale 0 is the no-effect control and ±100 the full control effect; nearly all actives have a fitted effect of over 20% in size
Target sequence (P02791 2-175 limits assumed): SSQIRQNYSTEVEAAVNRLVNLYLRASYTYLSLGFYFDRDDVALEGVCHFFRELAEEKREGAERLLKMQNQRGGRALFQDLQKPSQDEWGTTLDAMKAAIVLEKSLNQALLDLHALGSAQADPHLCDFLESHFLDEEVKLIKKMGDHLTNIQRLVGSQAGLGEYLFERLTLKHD
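Horse-spleen apoferritin (10 uM) in 50% saturated 1-aminoanthracene in PBS was incubated 10 min at room temperature with compound. Fluorescence (ex 380, em 535 nm) was normalized to free and bound 1-AMA, with concentration-response fitted by a four-parameter Hill equation.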
POLI inh = inhibitors of human DNA polymerase iota; Q9UNA4; AID 588590; Potency, µM (top dose mostly 115 µM), without a hit: top-dose activity, negative = inhibition, most hits filed as inhibitors; 390,000 compounds, 1% hits; Pol iota fluorescent replication assay, 10 min
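Pol iota at 10 nM preincubated 15 min with compounds at room temperature; reaction started with fluorescent substrate, 50 nM final. Fluorescence read kinetically at 0 and 10 min; buffer-only wells as negative control.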
BLM helicase inh = inhibitors of human Bloom syndrome helicase BLM; Potency, µM (top dose mostly 56.1 µM), for the others: top-dose activity change, negative = inhibition, hits mostly inhibitors; P54132; 350,000 compounds, 0.2% hits; recombinant BLM DNA unwinding, fluorescence dequenching;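 further: plate controls were vehicle for no effect and no enzyme for full effect; nearly all actives have a fitted effect of over 35% in size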
APE1 inh = blocks human APE1 abasic DNA cleavage; P27695; recombinant APE1, TAMRA/BHQ-2 abasic DNA cleavage fluorescence; Potency, µM (top dose mostly 65.8 µM), for inactives: top-dose activity change, negative = inhibition, hits mostly inhibitors; 350,000 compounds, 0.35% hits;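 further: plate controls were vehicle for no effect and reference inhibitor for full effect; nearly all actives have a fitted effect of over 55% in size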
Target sequence (P27695 whole entry, looked up): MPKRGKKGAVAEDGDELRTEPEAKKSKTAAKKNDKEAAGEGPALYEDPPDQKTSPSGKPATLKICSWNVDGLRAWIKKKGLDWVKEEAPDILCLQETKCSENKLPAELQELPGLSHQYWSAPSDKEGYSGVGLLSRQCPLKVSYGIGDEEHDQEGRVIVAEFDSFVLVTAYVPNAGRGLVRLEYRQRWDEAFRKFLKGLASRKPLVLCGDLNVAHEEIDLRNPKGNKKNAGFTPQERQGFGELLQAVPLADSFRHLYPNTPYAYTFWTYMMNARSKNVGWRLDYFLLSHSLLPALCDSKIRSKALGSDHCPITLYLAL
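Compound pre-exposure to 0.75 nM APE1, 15 min at ambient temperature. Reaction initiated with 50 nM TAMRA/BHQ-2 THF substrate, read immediately in kinetic mode, 525 nm excitation, 598 nm emission.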
Pol beta inh = blocks human DNA polymerase beta activity; P06746; Pol beta primer extension/strand displacement, fluorescence kinetic; Potency, µM (doses to about 114 µM), without a hit: top-dose activity change, negative = inhibition, hits mostly inhibitors; 340,000 compounds, 1.3% hits; AID 485314; further: on the % scale 0 is the no-effect control and ±100 the full control effect
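Values derive from four-parameter Hill fits of normalized kinetic data: reads at 0 and 10 min following addition of 50 nM substrate to 10 nM Pol beta preincubated 15 min with compound.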
* hit, by the source's call; u = inconclusive; x = no result given; [ ] = another dose, or the depositor's remark. The call rests on the fitted dose curve; in most records, active means well fitted curve in the direction sought with a large enough effect; inconclusive means small, poorly fitted or top-dose-only effect, or another doubt; inactive means no such curve, though single readings can be large; an effect the other way counts as inactive or inconclusive. Potency means the concentration at half of the fitted maximal effect. This is a subset. The share of hits here may be higher or lower than overall.

cpd	structure	BLM helicase inh	Pol beta inh	Anesthetic bind	Pol eta inh
1	COc1cc(OC)c(C(=O)OCC(=O)Nc2nnc(-c3ccccc3)o2)cc1OC	x	x	x	-3%
2	CSc1cccc(NCc2ccc([N+](=O)[O-])cc2)c1	-2%	-14%	u	-5%
3	Cc1ccc(NCc2ccc([N+](=O)[O-])s2)cc1	-5%	-17%	16µM*	-26%
4	Cc1cc2nc3c(nc2cc1C)C(O)=C3O	-5%	u	-17%	33%[activator]
5	CC1CN(C2CCN(S(=O)(=O)c3ccccc3)CC2)CC(C)O1 (stereo unspecified)	-8%	22%	-8%	-9%
6	CCC(=O)c1ccc(OCC(=O)Nc2ccc(N3CCOCC3)cc2N2CCOCC2)cc1	-7%	8%	-1%	-12%
7	COc1ccc(C(=O)C(Sc2nnc(C)c(=O)[nH]2)c2ccc(OC)cc2)cc1 (stereo unspecified)	-1%	9%	-7%	-4%
8	COCCn1c(=NC(=O)CSCC(=O)N2CCOCC2)sc2cc(C)ccc21	-2%	4%	-7%	-21%
9	COc1ccc(C2C(C(=O)O)c3ccccc3C(=O)N2Cc2ccco2)cc1 (stereo unspecified)	-1%	-1%	-6%	-12%
10	CC(C(=O)N1CCCC1)N(C)CC(=O)Nc1cccc(F)c1 (stereo unspecified)	x	x	x	-2%
11	O=C(O)c1ccc2c(=O)n3c(nc2c1)/C(=C/c1ccc(OC(F)F)cc1OC(F)F)CC3	-3%	20%	11%	-18%
12	COc1ccc2c(c1)C1=NN(/C(C)=C/C(C)=O)C(c3cccc(F)c3)C1CC2 (stereo unspecified)	-8%	7%	-6%	-22%
13	c1ccc(N(c2ccccc2)c2nc(-n3ccnc3)nc(-n3ccnc3)n2)cc1	-2%	29%	-16%	u
14	COc1ccc(N(CC(=O)NCC2CCCO2)S(=O)(=O)c2ccc(C)cc2)cc1OC (stereo unspecified)	-1%	-3%	-6%	-4%
15	COc1ccccc1CNC1CCCc2ccccc21 (stereo unspecified)	5%	2%	-13%	-14%

cpd	APE1 inh	G9a inh	POLI inh	Pol kappa inh
1	6%	u	11%	1%
2	9%	x	18%	-2%
3	21%	40µM*	90%[activator]	5%
4	1%	-111%	25%	-24%
5	13%	u	4%	-5%
6	-7%	10%[12.7 µM]	44%[activator]	3%
7	24%	x	14%	12%
8	-6%	20%	29%	-7%
9	-1%	3%	70%[activator]	-4%
10	45%[activator]	u	14%	-19%
11	4%	-4%	0%	9%
12	-2%	45µM*	30%[activator]	2%
13	-2%	-35%	0%	-24%
14	2%	-40%	-10%	2%
15	3%	45µM*	32%[activator]	4%

Continued.
cpd	structure	BLM helicase inh	Pol beta inh	Anesthetic bind	Pol eta inh
16	Cc1[nH]n(-c2cccc3ccccc23)c(=O)c1/C=N/NC(=O)c1cccc([N+](=O)[O-])c1	-9%	4%	-7%	-20%
17	COc1nccnc1NS(=O)(=O)c1ccc(NC(=S)NC(=O)/C=C/c2ccc(F)cc2)cc1	-1%	29%	-18%	u
18	CCOC(=O)c1ccc(NC(=S)NNC(=O)c2cc(-c3cccnc3)nc3ccccc23)cc1	-10%	11%	-12%	-12%
19	Cn1c(-c2ccc3c(c2)OCO3)cnc1NCc1ccccc1	1%	0%	-13%	-24%
20	Cn1c(=O)c2c(nc(Cl)n2Cc2ccc(Cl)c(Cl)c2)n(C)c1=O	-3%	11%	-7%	-7%
21	CCC(=O)c1ccc(OCC(O)CN2CC(C)OC(C)C2)cc1 (stereo unspecified)	-7%	u	-10%	-16%
22	O=C(COc1ccc(S(=O)(=O)NCc2ccccc2)cc1Cl)N1CCOCC1	0%	3%	-9%	0%
23	Cc1cc(C)c(C(=O)N2CCCC(N3CCN(c4cccc(C(F)(F)F)c4)CC3)C2)o1 (stereo unspecified)	-8%	-7%	-5%	-11%
24	COc1ccccc1C(=O)NC1(C(F)(F)F)C(=O)Nc2c1c(=O)[nH]c(=O)n2-c1ccccc1 (stereo unspecified)	-2%	13%	7%	0%
25	COc1ccc(-c2cn3c(n2)sc2cc(C(=O)Nc4cccc(SC)c4)ccc23)cc1	-3%	11%	-15%	-9%
26	COc1ccccc1C(=O)Nc1nnc(-c2ccc(F)cc2)o1	0%	17%	-8%	-15%
27	CC1Cc2ccccc2N1CC(=O)NC(c1ccccc1)c1ccccc1 (stereo unspecified)	1%	15%	-10%	-22%
28	CC(C)c1ccc2c(c1)NC(c1ccc(F)cc1)=NC(c1cccs1)=N2	-12%	0%	u	-28%
29	O=C(COc1ccccc1)Nc1nnc(-c2ccc(F)cc2)o1	-7%	2%	-6%	9%
30	Cc1ccc(CN2CCN(Cc3ccco3)CC2)cc1	-10%	16%	-4%	-9%

cpd	APE1 inh	G9a inh	POLI inh	Pol kappa inh
16	-4%	u	21%	3%
17	-3%	u	u	-2%
18	-8%	-13%[12.7 µM]	18%	7%
19	-3%	25µM*	u	-13%
20	-1%	0%	24%	-5%
21	-1%	14µM*	8%	23%
22	0%	5%[59 µM]	-6%[58.9 µM]	3%
23	36%	u	0%	-14%
24	x	-12%[59 µM]	-11%	1%
25	x	-46%[59 µM]	15%	-10%
26	-1%	u	u	-9%
27	-3%	2%[59 µM]	-21%	-6%
28	x	8.9µM*	8%	-10%
29	8%	x	13%	-4%
30	8%	7.9µM*	20%	0%

The list continues.
cpd	structure	BLM helicase inh	Pol beta inh	Anesthetic bind	Pol eta inh
31	Cc1ccc(SCC(=O)O/N=C(\N)c2ccc([N+](=O)[O-])cc2)cc1	-7%	31%	u	-18%
32	Cc1ccc2oc(=O)cc(CN3CCOCC3)c2c1	1%	18%	-13%	-13%
33	C/C(=C\c1ccccc1)CN1CCC(C(=O)N2CCCC(C)C2)CC1 (stereo unspecified)	0%	2%	-10%	-17%
34	Cn1c(-c2ccc(F)cc2)cnc1NCc1ccccc1	-8%	-12%	-6%	-15%
35	O=c1cc(-c2ccccc2)n(S(=O)(=O)c2ccccc2)o1	1%	-5%	-1%	-10%
36	CN(C(=O)CCc1ccccc1)c1nnc(-c2ccncc2)s1	-7%	8%	-7%	11%
37	CCOc1ccccc1CN1C(=O)c2ccccc2C1C(=O)NC1CCCCCC1 (stereo unspecified)	-3%	-16%	-16%	-13%
38	O=C(CSc1nccn1C1CCCC1)Nc1ccc(C(F)(F)F)cc1	-5%	-3%	-12%	-16%
39	CC(C)c1ccc(NC(=O)CSc2nnc(-c3ccccn3)n2C)cc1	-2%	0%	u	-24%
40	Cc1ccn2c(Nc3ccc4c(c3)OCCO4)c(-c3ccccc3O)nc2c1	-10%	15%	119%[activator]	-16%
41	CCc1n[nH]c(=S)n1/N=C/c1ccc(N(CC)CC)cc1	-8%	2%	-9%	-16%
42	CCOC(=O)N1CCN(CC(c2ccccc2)c2ccccc2)CC1	-5%	8%	-8%	-14%
43	COCCNCC(=O)Nc1ccccc1Sc1ccccc1	-11%	3%	-10%	-11%
44	Cc1ccc(C)c(NC(=O)Nc2cc3c(cc2N2CCCCC2)n(C)c(=O)n3C)c1	-6%	-12%	-10%	-22%
45	Cn1nnnc1SCCCNCc1ccc(-c2ccc(F)c(Cl)c2)o1	-1%	-11%	-11%	-12%

cpd	APE1 inh	G9a inh	POLI inh	Pol kappa inh
31	9%	3%[0.501 µM]	-14%	0%
32	-1%	u	-8%	1%
33	10%	13µM*	-3%	2%
34	10%	20µM*	10%	-11%
35	-5%	-42%[2.33 µM]	-7%	-17%
36	-1%	6%	100%[activator]	-14%
37	x	-40%[59 µM]	-9%	-11%
38	x	u	19%	-15%[60.1 µM]
39	-4%	-13%[59 µM]	21%	-19%
40	x	8.9µM*	-9%	-7%
41	9%	1.8µM*	65%[activator]	-4%
42	0%	2%[0.501 µM]	18%	1%
43	15%	10µM*	31%[activator]	4%
44	x	u	-3%	0%
45	x	u	1%	-4%

Next part.
cpd	structure	BLM helicase inh	Pol beta inh	Anesthetic bind	Pol eta inh
46	CCOC(=O)c1c(C)c(C(=O)N2CCN(c3cccc(Cl)c3)CC2)c(C)n1C	-6%	16%	-10%	-12%
47	CCN(CC)CCOc1ccc(Br)cc1	-8%	4%	-16%	-1%
48	COc1cccc(N/C(SCc2cccc([N+](=O)[O-])c2)=C(/C#N)C(=O)NCc2cccs2)c1	-6%	0%	-8%	-18%
49	O=C1C2CC=CCC2C(=O)N1c1ccc(NCCc2ccc(Cl)cc2)c([N+](=O)[O-])c1 (stereo unspecified)	-6%	-22%	u	-9%
50	O=C1OC(c2ccc(Br)cc2)=N/C1=C\N1CCCCC1	-11%	14%	2%	-8%
51	Cc1ccc(-n2[nH]c(C)c(C=Nc3ccc(S(=O)(=O)Nc4nccs4)cc3)c2=O)cc1	-2%	4%	-20%	x
52	Cn1cccc1Cc1nnc(SCC(=O)Nc2ccc(Cl)cc2)n1-c1ccc(F)cc1	-8%	1%	-3%	-21%
53	CN(C)c1cc2c(cc1NC(=O)c1ccc(F)cc1)n(C)c(=O)n2C	-2%	7%	-2%	-9%
54	COc1cccc(N2CCN(Cc3nc(N)nc(N4CCCc5ccccc54)n3)CC2)c1	-6%	18%	5%	-25%
55	O=[N+]([O-])c1cccc(NNS(=O)(=O)c2ccccc2F)c1	-3%	30%	-6%	-10%

cpd	APE1 inh	G9a inh	POLI inh	Pol kappa inh
46	-5%	-34%[59 µM]	7%	-20%
47	1%	13µM*	18%	-10%
48	0%	-14%	169%[activator]	-3%
49	-3%	35µM*	7%	-13%
50	10%	8%[12.7 µM]	16%	-11%
51	-5%	u	x	x
52	-6%	45µM*	22%	6%
53	x	u	u	u
54	-8%	u	9%	-5%
55	-1%	1.1µM*	16%	-23%

Single entries from the entries so far:
COc1cccc(N2CCN(Cc3nc(N)nc(N4CCCc5ccccc54)n3)CC2)c1 in POLI inh is entered as 9%
CCOC(=O)c1c(C)c(C(=O)N2CCN(c3cccc(Cl)c3)CC2)c(C)n1C in BLM helicase inh is entered as -6%

Sorted by the number under G9a inh (highest first): 3 of the compounds above
#	molecule	BLM helicase inh	Pol eta inh	APE1 inh	G9a inh	POLI inh	Pol kappa inh
52	Cn1cccc1Cc1nnc(SCC(=O)Nc2ccc(Cl)cc2)n1-c1ccc(F)cc1	-8%	-21%	-6%	45µM*	22%	6%
49	O=C1C2CC=CCC2C(=O)N1c1ccc(NCCc2ccc(Cl)cc2)c([N+](=O)[O-])c1 (stereo unspecified)	-6%	-9%	-3%	35µM*	7%	-13%
55	O=[N+]([O-])c1cccc(NNS(=O)(=O)c2ccccc2F)c1	-3%	-10%	-1%	1.1µM*	16%	-23%
